High-throughput results from PubChem.
gsp agonist: qHTS for Agonist of gsp, the Etiologic Mutation Responsible for Fibrous Dysplasia/McCune-Albright Syndrome: qHTS. gsp mutant cells, cAMP HTRF, 30 min; control for the full effect not named in the record. 340,000 compounds, 0.13% hits. Potency, µM (doses to about 76.9 µM), for inactives: at the highest dose activation (cAMP increase), usual class: activators; active = well fitted activation curve with a large enough effect; inconclusive = small, poorly fitted or top-dose-only effect, or another doubt; inactive = no such curve, though single readings can be large or run the other way; cell line not stated here;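 further: phosphodiesterase inhibitor Ro 20-1724 added with compounds to block cAMP breakdown; potency means the concentration at half of the fitted maximal effect; nearly all actives have a fitted effect of over 60% in size; about a fifth of the inactives were tested at one dose only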
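Cells in DMEM/10% FBS with G418 were pretreated with compounds in DMSO plus […] (300 uM stock) for 30 min at 37C. cAMP was measured by HTRF (cAMP-d2 plus anti-cAMP antibody-K) after 30 min at room temperature.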
PINK1 modulator: A Quantitative High throughput Screen to Identify Chemical Modulators of PINK1 Expression. PINK1 immunofluorescence, high-content cytometry, 24 h. Potency, µM (titrated, usually from 76.6 µM), for the others: at the highest dose activation (PINK1 increase), hits mostly activators. 410,000 compounds, 0.2% hits; active = well fitted activation curve with a large enough effect; inconclusive = small, poorly fitted or top-dose-only effect; inactive = flat fitted curve, though single readings scatter; cell line not stated here;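 further: potency means the concentration at half of the fitted maximal effect; % of control where 0% means no effect; nearly all actives have a fitted effect of over 65% in size; a mitochondrial uncoupler was the plate control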
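Cells are seeded, rested 12 hours, then given compound at five concentrations or DMSO for 24 hours. After fixation, blocking and antibody staining, PINK1 amount and mitochondrial localization are scored; CCCP serves as control.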
Sfp inh: qHTS Assay for Inhibitors of Bacillus subtilis Sfp phosphopantetheinyl transferase (PPTase). Biochemical Sfp PPTase activity, qHTS. 4'-phosphopantetheinyl transferase ffp (Bacillus subtilis), Q9F4F7. Potency, µM, inactives show max response, negative = inhibition, most hits filed as inhibitors. 310,000 compounds, 3.5% hits. AID 1490, 2009; active means well fitted inhibition curve with a large enough effect; inconclusive means small, poorly fitted or top-dose-only effect, or another doubt; inactive means no such curve, though single readings can be large or run the other way;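 further: the enzyme is Sfp with the accession as filed and its product quenches rhodamine fluorescence; potency means the concentration at half of the fitted maximal effect; 0% = enzyme reaction without inhibitor and -100% = no enzyme wells; top concentration of the series not given in the record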
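Buffer: 50 mM Hepes-Na pH 7.6, 10 mM MgCl2, 0.01% Nonidet P-40, 0.01% BSA. Enzyme 15 nM, pre-exposed to compound 15 min; substrates then added and fluorescence change tracked over 30 min.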
D2 ag: Beta-Arrestin HTS for Positive Allosteric Modulators of the Human D2 Dopamine Receptor: Agonists | D(2) dopamine receptor (Homo sapiens), P14416 | DiscoveRx PathHunter D2 beta-arrestin, luminescence, 90 min; 100% = 57 uM dopamine signal | activation, % (test concentration not listed) | 360,000 compounds, 0.084% hits | AID 624465, 2012; in the data active = activation above about 40%; inconclusive = about 15% to 40%; inactive = below about 15%; further: compound concentration not given in the record; the text of the record calls up to 30% inactive
Target sequence (P14416 whole entry, looked up): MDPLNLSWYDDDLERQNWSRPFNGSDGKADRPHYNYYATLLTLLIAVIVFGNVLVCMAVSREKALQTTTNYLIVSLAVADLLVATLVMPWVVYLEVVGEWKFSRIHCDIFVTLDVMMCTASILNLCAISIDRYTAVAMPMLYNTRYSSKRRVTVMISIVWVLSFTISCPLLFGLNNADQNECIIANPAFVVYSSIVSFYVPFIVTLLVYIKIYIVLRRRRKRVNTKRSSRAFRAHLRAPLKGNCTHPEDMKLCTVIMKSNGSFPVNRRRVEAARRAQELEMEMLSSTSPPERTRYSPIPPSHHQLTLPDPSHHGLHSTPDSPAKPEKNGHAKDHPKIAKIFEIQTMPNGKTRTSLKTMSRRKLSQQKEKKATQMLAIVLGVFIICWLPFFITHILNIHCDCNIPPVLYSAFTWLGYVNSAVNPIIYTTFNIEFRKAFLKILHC
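DiscoveRx PathHunter D2 beta-arrestin cells (2,100/well) attached overnight, then compound-stimulated 90 min at 37 C in HBSS/10 mM HEPES/0.1% Tween-20 buffer; beta-galactosidase complementation read by luminescence after 1 h at ambient temperature. Dopamine 57 uM final (EC100) as control.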
Menin-MLL FL inh: qHTS Assay for Inhibitors Targeting the Menin-MLL Interaction in MLL Related Leukemias: Competition With Fluorescein Labeled MLL-derived Peptide; Fluorescence polarization, fluorescein-MLL peptide displacement from menin; FP activity change, % at 61.4 µM; 290,000 tested, under 10 active; inconclusive = falling polarisation curve, or a change in total fluorescence; inactive = total fluorescence flat and polarisation flat or rising; no compound was filed as active; the % refers to the polarisation; negative = inhibition;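 further: % of control where 0% means no effect; inhibitors lower the polarisation; unlabelled MLL peptide was the positive control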
ClpP mod: qHTS Assay for Activators of ClpP. ATP-dependent Clp protease proteolytic subunit (Bacillus subtilis (strain 168)), P80244. purified B. subtilis ClpP, FRET peptide cleavage, 20 min. Potency, µM (highest dose often 57.5 µM), for inactives: top-dose activity change, negative = active. 340,000 compounds, 1.9% hits; active = well fitted falling curve with a large enough effect; inconclusive = small, poorly fitted or top-dose-only effect; inactive = no such curve, though single readings can be large or run the other way; further: potency means the concentration at half of the fitted maximal effect; the source files actives as falling curves though it sought activators and does not explain the sign; nearly all actives have a fitted effect of over 65% in size; many hits overshoot -100%
Target sequence (P80244 whole entry, looked up): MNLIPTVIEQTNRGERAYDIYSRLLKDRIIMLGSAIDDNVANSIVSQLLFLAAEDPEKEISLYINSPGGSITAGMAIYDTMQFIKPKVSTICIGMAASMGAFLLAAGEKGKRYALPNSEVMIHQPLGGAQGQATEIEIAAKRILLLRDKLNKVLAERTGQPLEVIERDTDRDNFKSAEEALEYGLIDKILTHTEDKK
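FRET quenching reversal measured ClpP activation: 10 microg/mL B. subtilis ClpP at pH 8 with the FRET-FV decapeptide, read at 430 nm after 320 nm excitation. The 20-min minus 0-min signal was scaled between DMSO/no-enzyme wells and ADEP (5.8 microM final).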
gsp antagonist: qHTS for Antagonists of gsp, the Etiologic Mutation Responsible for Fibrous Dysplasia/McCune-Albright Syndrome: qHTS; Potency, µM (top dose mostly 76.9 µM), for inactives: top-dose activity change, negative = inhibition, actives largely listed as inhibitors; gsp-mutant cells, cAMP HTRF, 30 min; control for the full effect not named in the record; 340,000 compounds, 0.4% hits; active = falling curve of any shape with a large fitted effect; inconclusive = falling curve, mostly with a smaller effect; inactive = flat or rising curve; cell line not stated here;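 further: intracellular cAMP measured with PDE inhibitor Ro 20-1724 present during compound exposure; potency means the concentration at half of the fitted maximal effect; on the % scale 0 is the no-effect control and ±100 the full control effect; nearly all actives have a fitted effect of over 65% in size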
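HTRF cAMP measurement after 30 min RT detection following 30 min, 37C compound treatment alongside […] (added as 300 uM solution) in G418-selected cells seeded at 2000/well and grown 16–24 h.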
Starred values were filed as active, the others as inactive; ? = inconclusive; / = not tested or not shown; [ ] = dose if it differs, or a comment. Rows were taken by chance. Share with any hit: about 5.1%.

SMILES	gsp agonist	PINK1 modulator	Sfp inh	D2 ag	Menin-MLL FL inh	ClpP mod	gsp antagonist
C[C@H](CO)N1C[C@H](C)[C@@H](CN(C)C(=O)Nc2ccc3c(c2)OCO3)Oc2c(NC(=O)C3CC3)cccc2C1=O	/	2.5%	/	-0.6	/	-3.4%	-5.1%
COc1cc(/C=C2\CC(C(C)(C)C)C/C(=C\c3cc(OC)c(OC)c(OC)c3)C2=O)cc(OC)c1OC (stereo not drawn)	-22.2%	-0.4%	-20.5%	-4.0	-15.8	-2.1%	-17.0%
CC(C)Oc1cccc(C(=O)C2CCCN(C(=O)c3ccoc3)C2)c1 (stereo not drawn)	-30.3%[inhibitor]	1.5%	7.6%	6.1	-0.7	/	-10.3%
COc1ccc(CCn2c(=N)c(C(=O)NCC3CCCO3)cc3c(=O)n4ccccc4nc32)cc1 (stereo not drawn)	?	-1.9%	11.4%	-3.3	/	-34.0%	6.5%
Cc1cc(Sc2nc(N(C)C)nc(N(C)C)n2)nc(Cl)n1	?	0.3%	15.5%	-1.8	-1.2	2.8%	13.2%
COc1ccc(N(CC(=O)Nc2cc(OC)ccc2OC)S(=O)(=O)c2c(C)nn(C)c2C)cc1	-81.3%	4.6%	-5.5%	-0.1	2.4	1.7%	1.4%
COc1cc(/C=C2\SC(N3CCC(C)CC3)=NC2=O)ccc1O	-4.0%[15.4 µM]	1.3%	-3.3%	3.5	?	14.1µM*	0.6%
O=C(NCC1CCCO1)c1ccc(COc2ccccc2)o1 (stereo not drawn)	-2.6%[15.4 µM]	-0.3%	/	2.6	/	-1.6%	7.2%
CCCCN(CCCC)Cc1ccc(N)cc1	6.8%	8.8%[38.3 µM]	8.3%	-4.5	2.4	-1.1%	9.6%
CCN(CC)S(=O)(=O)c1cccc(N=NC2=C(O)CCCC2=O)c1	1.5%[15.4 µM]	-0.4%	-3.3%	-4.4	5.7	1.8%	13.1%
O=C(/C=C/c1ccco1)N1CCN(C/C=C/c2ccccc2)CC1	-29.2%	-1.2%	-9.1%	-1.9	7.4	-1.1%	-4.9%
COc1ccc(NC2=NCCCCC2)cc1	-4.0%[15.4 µM]	4.0%	10.0%	-2.1	0.7	1.3%	14.9%
O=C(Cn1cc(C(F)(F)F)ccc1=O)NCCc1ccc(Cl)cc1Cl	0.2%	2.3%	25.9%	0.4	-2.3	1.1%	-12.7%
CC(=O)N1CCc2c(sc(NC(=O)Cc3ccccc3)c2C(N)=O)C1	-32.8%[inhibitor]	4.7%	-5.1%	-7.0	5.3	4.2%	-8.2%
COc1ccc(CNC(=O)c2ccc3c(=O)n(CCCN4CCCC4=O)c(=S)[nH]c3c2)cc1	15.9%[15.4 µM]	0.9%	10.9%	-2.3	6.9	-0.2%	-8.0%
NC(N)=Nc1nc(-c2ccccc2)c2cc(F)ccc2n1	?	-1.5%	-19.2%	-5.2	-1.5	/	10.3%
Clc1ccc2nc(C3CCN(Cc4ccccc4)CC3)[nH]c2c1	-23.2%	0.4%[38.3 µM]	11.4%	-1.5	-2.6	-2.1%	5.6%
O=C(CSc1nccn1Cc1ccco1)Nc1ccccc1	-12.6%	-2.7%	-6.7%	-2.7	/	-4.3%	6.8%
CC1=CC(C)(C)N(C(=O)CN2C(=O)c3ccccc3C2=O)c2ccc(C)cc21	-82.1%[inhibitor]	3.0%[38.3 µM]	?	-1.4	-3.0	-0.2%	-2.5%
Cc1ccc(S(=O)(=O)N2CCN(Cc3ccccc3C(F)(F)F)CC2)cc1	5.0%	-2.6%	?	0.9	5.3	-2.1%	6.2%
Cc1ccc(NC(=O)c2ccccc2-c2cc(C)no2)cc1	-24.2%	-0.8%	-4.6%	-2.1	-1.6	0.0%	9.4%
C=CCOC(=O)C1=C(C)OC(N)=C(C#N)C1c1ccco1 (stereo not drawn)	4.9%	0.4%	3.0%	-1.3	4.3	-1.8%	6.7%
COc1ccc(OCC#CCN2CC(C)OC(C)C2)cc1 (stereo not drawn)	?	-1.0%	?	3.0	0.8	/	2.5%
Cc1nc2scc(-c3ccccc3)c2c(=O)n1N=C1C=CC(=O)C=C1	15.6%[15.4 µM]	2.4%	16.9%	-13.7	-1.4	/	-2.5%
O=C(Nc1ccon1)c1cc2c(s1)CCCCCC2	-15.1%	-0.2%[38.3 µM]	7.2%	2.3	3.1	-2.0%	-7.5%
O=C(C1=C[C@@H](C2CCCCC2)C[C@@H](OCc2ccc(CO)cc2)O1)N1CCN(Cc2ccccc2)CC1	-3.8%	7.3%	-20.9%	1.7	-3.2	-0.3%	-10.7%
CC(C)(C)OC(=O)[C@H](Cc1ccccc1)NC(=O)c1nc[nH]c1C(=O)NCCCCCN	25.7%	-0.7%	/	-0.3	/	-4.1%	10.7%
COCCCNC(=S)N1CCN(c2nc3ccccc3s2)CC1	-12.5%[15.4 µM]	3.0%	12.5%	-1.6	-2.0	/	-5.7%
CCN(C(=O)CSc1nc2ccccc2c(=O)n1-c1cccc(C)c1)C1CCS(=O)(=O)C1 (stereo not drawn)	-6.8%[15.4 µM]	0.2%	19.1%	-0.4	3.2	/	-11.5%
CCn1c(SCC(=O)c2ccc(F)cc2)nnc1-c1ccoc1C	-28.0%	-1.6%	?	-1.8	-1.3	-1.1%	6.3%
Cc1cc(C(=O)NNS(=O)(=O)c2ccc(F)cc2)nn1C(C)(C)C	15.2%	-0.1%	18.0%	-2.5	0.7	-0.5%	0.2%
CCOc1cccc2cc(C(N)=O)c(=N)oc12	9.9%[15.4 µM]	1.0%	18.0%	-1.8	5.6	/	2.9%
Cc1ccc(S(=O)(=O)NC(=O)C2(C)CCN2C(=O)CC2CCCC2)nc1 (stereo not drawn)	/	1.8%	/	7.5	/	0.1%	/
CC(=O)c1ccc(NC(=O)CSc2nnc(-c3ccncc3)n2C2CC2)cc1	27.4%	4.1%	/	-3.1	/	-0.4%	16.5%
Cc1cc(O)ccc1C1(c2ccc(O)cc2C)OC(=O)c2ccccc21	-0.8%	-0.7%	3.1%	-0.7	3.2	-0.6%	15.8%
Cc1cc(C)nc(NC(=O)Cc2ccc(Cl)cc2)c1	-0.2%[15.4 µM]	3.0%	?	-1.4	0.0	23.1%	11.1%
CC(=O)Nc1cccc(NC(=O)C(C)N2c3cccc4cccc(c34)S2(=O)=O)c1 (stereo not drawn)	20.8%[15.4 µM]	5.4%	7.0%	0.4	-5.3	0.1%	-27.6%
C=CC[N+]1(CC#Cc2ccccc2)CCCC1	-20.6%	-1.4%	13.9%	-0.2	-4.5	/	9.7%
Cc1ccc(S(=O)(=O)NCC(C)NC(=O)CN2CCOCC2)cc1 (stereo not drawn)	22.9%	1.8%	13.2%	-2.5	0.7	/	11.5%
COc1ccc(N2CCN(C(=O)C3CCCO3)CC2)cc1 (stereo not drawn)	-4.9%	-1.2%[38.3 µM]	11.9%	0.5	3.9	-11.8%	-2.2%
O=C(NC1CCN(Cc2ccccc2)CC1)c1cc(Br)c(Br)[nH]1	-7.8%[15.4 µM]	3.8%	-1.0%	-4.7	3.2	/	8.2%
O=C(NC1CCCC1)C(c1ccsc1)N(Cc1ccco1)C(=O)Cc1cccs1 (stereo not drawn)	-16.6%	1.0%	1.7%	-1.6	-1.0	-3.0%	-3.5%
O=C(CSc1nnc(-c2cccnc2)s1)Nc1ccccc1	?	?	19.2%	0.2	-6.9	-1.5%	-14.1%
CCCn1c(SCC(=O)NCC)nc2sc3c(c2c1=O)CCC3	?	11.2%	16.8%	4.7	2.2	/	-5.2%
Cc1ccccc1Nc1nc(N)nc(CSc2nnc3ccccn23)n1	3.5%[15.4 µM]	4.8%	19.2%	4.9	-1.0	/	12.7%
CCOc1cccc2sc(NN)nc12	0.9%[15.4 µM]	3.2%	-81.4%	-4.1	2.8	/	3.3%
CC(C)N1CCC(N2CCN(Cc3cccc4nonc34)CC2CCO)CC1 (stereo not drawn)	3.2%[15.4 µM]	-1.3%	23.4%	-0.4	0.7	0.1%	11.2%
O=C(NNC(=O)c1csc(-c2cccnc2)n1)Nc1ccc(Cl)cc1	-67.7%[inhibitor]	4.9%	-6.4%	-2.5	-4.3	0.5%	2.1%
O=C(c1ncn(Cc2ccccc2)c1C(=O)N1CCc2ccccc2C1)N1CCc2ccccc2C1	/	-0.8%	/	-2.8	/	-3.9%	-9.0%
O=[N+]([O-])c1ccc(S(=O)(=O)CC2CSc3nc4ccccc4n32)cc1 (stereo not drawn)	-0.9%	-0.2%	0.7%	-2.9	/	-7.4%	1.0%
COc1ccccc1C(=O)NNC(=O)CCN1C(=O)/C(=C\c2ccccc2)SC1=S	17.7%[15.4 µM]	7.4%	-10.5%	5.5	-1.4	-3.2%	-17.4%
CCOC(=O)N1CCN(C(=O)COCc2cc(-c3ccc4c(c3)OCO4)on2)CC1	36.8%	-1.3%	9.1%	-0.8	3.6	-13.7%	-4.0%
CCOC(=O)C1(CCc2ccccc2)CCN(C(=O)CCn2cnnn2)CC1	20.8%[15.4 µM]	-2.2%	9.2%	0.0	1.3	/	3.1%
COc1c(/C=N/Nc2ccc(C(=O)O)cc2)c(CCN(C)C(C)=O)cc2c1OCO2	-5.1%	-0.5%	5.1%	-2.9	-3.6	-4.7%	-16.2%
Cc1cccc(N(CC(=O)N2CCN(c3ccc(F)cc3)CC2)S(C)(=O)=O)c1C	6.9%[15.4 µM]	2.4%	13.4%	1.0	1.0	/	0.2%
